Screens from PubChem BioAssay.
ClpP mod: qHTS Assay for Activators of ClpP; ATP-dependent Clp protease proteolytic subunit (Bacillus subtilis (strain 168)), P80244; 340,000 compounds, 1.9% hits; purified B. subtilis ClpP, FRET peptide cleavage, 20 min; Potency, µM (highest dose often 57.5 µM), inactives show at the top dose activity change, negative = active; active = well fitted falling curve with a large enough effect; inconclusive = small, poorly fitted or top-dose-only effect; inactive = no such curve, though single readings can be large or run the other way; note: potency is the fitted concentration of half-maximal effect; the source files actives as falling curves though it sought activators and does not explain the sign; nearly all actives have a fitted effect of over 65% in size; many hits overshoot -100%
Target sequence (P80244 whole entry, looked up): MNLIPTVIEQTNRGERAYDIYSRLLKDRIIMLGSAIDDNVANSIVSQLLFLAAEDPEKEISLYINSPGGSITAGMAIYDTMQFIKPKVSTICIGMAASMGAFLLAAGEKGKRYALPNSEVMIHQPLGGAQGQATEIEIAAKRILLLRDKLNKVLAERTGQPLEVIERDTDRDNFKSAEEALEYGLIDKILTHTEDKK
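ClpP 10 microg/mL final, pH 8 Tris/KCl buffer with BSA, glycerol, Tween-20; compound pinned in; FRET-FV substrate; RT 20 min; Ex320/Em430; ΔFRET vs ADEP 5.8 microM, DMSO, no enzyme.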
Sfp inh: blocks B. subtilis Sfp PPTase activity; Biochemical Sfp PPTase activity, qHTS; Q9F4F7; 310,000 compounds, 3.5% hits; Potency, µM, for inactives: max response, negative = inhibition, most hits filed as inhibitors; AID 1490; active = well fitted inhibition curve with a large enough effect; inconclusive = small, poorly fitted or top-dose-only effect, or another doubt; inactive = no such curve, though single readings can be large or run the other way;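 note: the enzyme is Sfp with the accession as filed and its product quenches rhodamine fluorescence; potency is the fitted concentration of half-maximal effect; 0% = enzyme reaction without inhibitor and -100% = no enzyme wells; top concentration of the series not given in the record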
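Compounds were incubated with enzyme (final 15 nM) for 15 min at room temperature before substrate addition started the reaction. Fluorescence at 525 nm excitation, 598 nm emission was recorded immediately and after 30 minutes.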
D2 agonist: human D2 receptor agonism in beta-arrestin assay. P14416. DiscoveRx PathHunter D2 beta-arrestin, luminescence, 90 min; 100% = 57 uM dopamine signal. activation, % (test concentration not listed). 360,000 compounds, 0.084% hits. AID 624465; in the data active = activation above about 40%; inconclusive = about 15% to 40%; inactive = below about 15%; note: compound concentration not given in the record; the text of the record calls up to 30% inactive
Target sequence (P14416 whole entry, looked up): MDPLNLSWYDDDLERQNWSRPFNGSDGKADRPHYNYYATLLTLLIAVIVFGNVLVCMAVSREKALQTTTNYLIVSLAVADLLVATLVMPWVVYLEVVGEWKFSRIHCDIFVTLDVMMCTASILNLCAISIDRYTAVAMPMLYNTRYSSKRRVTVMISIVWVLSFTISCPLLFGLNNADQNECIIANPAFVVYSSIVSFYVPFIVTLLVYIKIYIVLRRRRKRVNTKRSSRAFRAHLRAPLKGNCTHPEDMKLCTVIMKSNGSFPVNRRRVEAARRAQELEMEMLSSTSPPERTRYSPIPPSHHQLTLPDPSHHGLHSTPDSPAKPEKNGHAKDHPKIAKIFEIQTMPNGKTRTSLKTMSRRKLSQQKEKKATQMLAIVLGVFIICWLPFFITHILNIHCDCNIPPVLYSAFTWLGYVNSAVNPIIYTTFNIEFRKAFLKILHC
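Agonist mode: compounds alone added to overnight-plated D2 PathHunter cells for 90 min at 37 C, with 57 uM final dopamine (EC100) defining full response. Beta-arrestin recruitment detected by chemiluminescent reagent, read after 1 h at ambient temperature.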
gsp ag: gsp mutant agonism; gsp mutant cells, cAMP HTRF, 30 min; control for the full effect not named in the record; 340,000 compounds, 0.13% hits; AID 624287; Potency, µM (top dose mostly 76.9 µM), for the others: at the top dose activation (cAMP increase), usual class: activators; active = well fitted activation curve with a large enough effect; inconclusive = small, poorly fitted or top-dose-only effect, or another doubt; inactive = no such curve, though single readings can be large or run the other way; cell line not stated here;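 note: phosphodiesterase inhibitor Ro 20-1724 added with compounds to block cAMP breakdown; potency is the fitted concentration of half-maximal effect; nearly all actives have a fitted effect of over 60% in size; about a fifth of the inactives were tested at one dose only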
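Cells stably selected in G418 were plated at 2000/well, grown 16-24 hr, then given compounds in DMSO with the PDE inhibitor […] (300 uM solution added) for 30 min at 37C; cAMP was read by HTRF.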
Menin MLL FP FL: menin-MLL binding inhibition, fluorescein peptide | 290,000 tested, under 10 active | FP activity change, % at 61.4 µM | Fluorescence polarization, fluorescein-MLL peptide displacement from menin; inconclusive = falling polarisation curve, or a change in total fluorescence; inactive = total fluorescence flat and polarisation flat or rising; no compound was filed as active; the % refers to the polarisation; negative = inhibition;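 note: % of control where 0% means no effect; inhibitors lower the polarisation; unlabelled MLL peptide was the positive control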
gsp antagonist: gsp mutant antagonism. gsp-mutant cells, cAMP HTRF, 30 min; control for the full effect not named in the record. Potency, µM (titrated, usually from 76.9 µM), for the others: at the highest dose activity change, negative = inhibition, usual class: inhibitors. 340,000 compounds, 0.4% hits. AID 624288; active = falling curve of any shape with a large fitted effect; inconclusive = falling curve, mostly with a smaller effect; inactive = flat or rising curve; cell line not stated here;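 note: intracellular cAMP measured with PDE inhibitor Ro 20-1724 present during compound exposure; potency is the fitted concentration of half-maximal effect; % is set by controls: 0 for no effect and ±100 for the full control effect; nearly all actives have a fitted effect of over 65% in size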
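HTRF cAMP measurement after 30 min RT detection following 30 min, 37C compound treatment alongside […] (added as 300 uM solution) in G418-selected cells seeded at 2000/well and grown 16–24 h.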
PINK1 expr mod: PINK1 expression modulation. AID 624263. PINK1 immunofluorescence, high-content cytometry, 24 h. 410,000 compounds, 0.2% hits. Potency, µM (doses to about 76.6 µM), for inactives: top-dose activation (PINK1 increase), usual class: activators; active = well fitted activation curve with a large enough effect; inconclusive = small, poorly fitted or top-dose-only effect; inactive = flat fitted curve, though single readings scatter; cell line not stated here;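 note: potency is the fitted concentration of half-maximal effect; % of control where 0% means no effect; nearly all actives have a fitted effect of over 65% in size; a mitochondrial uncoupler was the plate control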
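Fluorescence from anti-PINK1 antibody, together with nuclear and cell stains, was scanned on a laser-scanning cytometer. Before staining, stable-line cells were incubated 24 hours with compounds at 5 concentrations; primary antibody 12 h at 10 degrees C.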
* = called active by the depositor; ? = inconclusive; . = no result given; & = joins results of further samples; [ ] = dose if it differs, or a comment.

Order of results – Sfp inh | gsp ag | Menin MLL FP FL | gsp antagonist | PINK1 expr mod | ClpP mod | D2 agonist
COc1ccc(C(O)(C2CCCCC2)C(CN2CCOCC2)c2ccccc2)cc1 (stereo unspecified)
  -22% | -2% | -0.9 | -19% | ? | -0.8% | -4.4
O=C(CC(c1ccccc1)c1ccccc1)N1CCN(c2ccccn2)CC1
  13% | -12%[15.4 µM] | 1.6 | -20% | 1.1% | 1.0% | 2.1
O=C(CC(Cc1ccccc1)c1ccco1)NCc1ccco1 (stereo unspecified)
  10% | 11%[15.4 µM] | 0.6 | 8% | 3.4% | -14% | 2.5
CCC(=O)Nc1ccccc1C(=O)N1CCN(Cc2ccccc2)CC1
  25% | -24% | -0.5 | 15% | 0.3% | -2.3% | -3.2
Cn1c(=O)c2c(nc(CN3CCN(c4ccccc4F)CC3)n2CCCc2ccccc2)n(C)c1=O
  . | 20% | . | -7% | -2.9% | -0.2% | -2.4
COc1ccc(NC(=O)CSCC(=O)N(C)CCOc2ccc(Cl)cc2)cc1
  . | 9%[15.4 µM] | . | 5% | -0.8% | 0.4% | -4.1
O=C(NCCCN1CCCC1=O)c1cc2c(s1)CCCCC2
  -4% | 6% | 3.6 | 9% | -0.5% | -1.0% | 2.4
COc1ccc2nc(C)cc(SCC(=O)N/N=C/c3ccc(O)c(O)c3)c2c1
  -20% | 2% | 3.5 | -18% | -2.1% | . | 9.0
CCOC(=O)c1ccccc1NC(=O)CSc1nc2ccncc2[nH]1
  2% | ? | -3.4 | 5% | 0.5%&1.2% | -9.4%&-9.1% | 0.9
CC1CC(C)(C)NCCNC(C)CC(C)(C)NCCN1 (stereo unspecified)
  4% | -33% | -0.9 | 4% | -1.2%[38.3 µM] | -0.5% | 0.1
O=C(CSc1nnc(-c2ccc(F)cc2)c2ccccc12)Nc1ccccc1
  13% | 0% | 2.2 | -15% | 3.1% | 0.4% | -1.5
CC(=O)c1c(C)[nH]c(C(=O)OCC(=O)c2ccc(Br)cc2)c1C
  . | -8% | . | . | 6.5% | 1.6% | 4.6
COC(=O)c1cc2sc(Cl)cc2n1CC(=O)Nc1ccc(OC)c(OC)c1OC
  -6% | -1% | 3.1 | 0% | ? | -7.0% | -2.4
Nc1c(S(=O)(=O)c2cccc(Cl)c2)c2nc3ccccc3nc2n1CCN1CCOCC1
  -4% | ? | 3.6 | -11% | 2.7%[38.3 µM] | 32µM* | 0.8
CCOC(=O)CC1C(=O)NCCN1S(=O)(=O)c1ccc(C)cc1 (stereo unspecified)
  -4% | -2% | 0.8 | 13% | 1.7% | . | 1.0
CCOC(=O)c1ccc(N2C(=O)CC(C3CCCO3)C2=O)cc1 (stereo unspecified)
  8% | -34% | 1.1 | 10% | -0.6% | -1.4% | -2.7
CC1(C(=O)NS(=O)(=O)c2ccc(C#N)cc2)CCN1C(=O)C1CCCCC1 (stereo unspecified)
  . | . | . | . | 3.3% | 0.6% | 5.1
Cc1ccc(N(CC(=O)NCC2CCCO2)S(C)(=O)=O)cc1Cl (stereo unspecified)
  14% | -4% | 5.1 | 0% | 3.0%[38.3 µM] | -0.1% | 4.1
CC(=O)N1CCCC(c2cc(C(=O)Nc3ccccc3)no2)C1 (stereo unspecified)
  . | . | . | . | 0.6% | -1.3% | -5.8
Cc1nn(Cc2ccccc2)c(C)c1C(=O)N1CCN(CC(=O)Nc2ccc(F)cc2)CC1
  . | -19% | . | -2% | 1.5% | 2.4% | -2.8
CCCCn1c(NC(=S)Nc2ccccc2)nc2ccccc21
  5% | 9%[15.4 µM] | -1.8 | -8% | -3.4% | -1.6% | -2.9
C[C@@H](CN1CCC(Cc2ccccc2)CC1)[C@@H](O)c1ccc(O)cc1
  13% | . | 0.0&-16 | 3% | 0.9% | 0.6% | -3.7
O=C(NC(=S)Nc1ccc(Cc2ccncc2)cc1)c1ccccc1Cl
  -6% | -8%[15.4 µM] | 9.7 | 11% | 10% | -0.3% | 0.7
O=C(N/N=C/c1cccc([N+](=O)[O-])c1)c1cccc2cc[nH]c12
  22% | -2%[15.4 µM] | 2.8 | -7% | 0.0% | . | 8.5
COc1ccc(-c2cc(C(=O)NCc3ccc(C(F)(F)F)cc3)[nH]n2)c(C)c1
  . | . | . | . | ? | 1.7% | -2.1
COC(=O)C1=C(N)Oc2cc(C)n(CC3CCCO3)c(=O)c2C1c1ccccc1 (stereo unspecified)
  0% | -16% | -1.9 | -1% | 1.7% | -1.7% | -2.0
CS(=O)(=O)c1ccc(C(=O)N2CCN(Cc3ccccc3)CC2)cc1
  7% | 9%[15.4 µM] | 0.3 | -11% | -0.6% | . | 0.4
Cc1cc2nc(-c3ccccc3)c(Cc3cccc(F)c3)n2c(C)c1Br
  . | . | . | . | ? | -0.3% | -2.9
Cc1nc2ccccc2n1C(=O)c1ccccc1[N+](=O)[O-]
  -6% | 10% | 3.0 | 16% | -2.5% | -0.8% | 1.8
O=C(Nc1nccs1)c1cn2ccccc2n1
  ? | -40%[inhibitor] | 3.7 | 4% | 0.2% | 0.1% | -0.9

Shown field by field: entries from further up.
> CS(=O)(=O)c1ccc(C(=O)N2CCN(Cc3ccccc3)CC2)cc1
- Sfp inh = 7%
- gsp ag = 9%[15.4 µM]
- Menin MLL FP FL = 0.3
- gsp antagonist = -11%
- PINK1 expr mod = -0.6%
- ClpP mod = .
- D2 agonist = 0.4
> Cc1cc2nc(-c3ccccc3)c(Cc3cccc(F)c3)n2c(C)c1Br
- Sfp inh = .
- gsp ag = .
- Menin MLL FP FL = .
- gsp antagonist = .
- PINK1 expr mod = ?
- ClpP mod = -0.3%
- D2 agonist = -2.9

Further records follow:
Order of results – Sfp inh | gsp ag | Menin MLL FP FL | gsp antagonist | PINK1 expr mod | ClpP mod | D2 agonist
Cc1cc(OCc2cccc(S(=O)(=O)N3CCOCC3)c2)ccc1Cl
  . | -20% | . | -17% | 0.0% | -1.7% | -4.1
Cc1ccc(S(=O)(=O)N2CCCCC2)cc1NC(=O)CSc1ncn[nH]1
  4% | -59%[inhibitor] | -7.0 | -11% | -2.1% | . | -4.2
CCCN1C2CCCC1CC(NC(=O)c1ccccc1Br)C2 (stereo unspecified)
  8% | -7%[15.4 µM] | -2.1 | 10% | 1.6% | -1.7% | -1.0
Cc1cc(C)c(S(=O)(=O)NCC(c2ccc3c(c2)OCO3)N2CCOCC2)c(C)c1 (stereo unspecified)
  . | -41%[inhibitor] | . | 8% | -0.7% | -4.3% | -3.1
Cc1nc(C)c(C(=O)N2CCCC(C(=O)c3ccc(Cl)cc3C)C2)s1 (stereo unspecified)
  11% | ? | . | -5% | 3.4% | -0.2% | -4.8
C/C(=N\N=C1\NC(=O)CS1)c1cccs1
  11% | -53%[inhibitor] | 2.2 | 5% | 1.9% | -4.5% | -6.3
O=C(COC(=O)CCC1CCCC1)Nc1cccc(S(=O)(=O)N2CCOCC2)c1
  . | ? | . | -7% | 1.4% | -3.3% | 5.9
COc1ccc([C@H]2CC(=O)C=C(c3cc(C=O)ccc3OC)C2)cc1OC
  . | . | . | 8% | 6.8% | 1.4% | 1.9
FC(F)Oc1ccc(-c2csc(=Nc3cccnc3)n2CC2CCCO2)cc1 (stereo unspecified)
  9% | 0% | -9.5 | -20% | 0.6% | 1.8% | 2.8
CCOCC(=O)Nc1ccc(S(=O)(=O)N2CCC(c3nc4ccccc4[nH]3)CC2)cc1
  . | -55% | . | -19% | 0.4% | -11% | 0.2
Oc1ccc(Cl)cc1CNc1cccc2cccnc12
  -21% | -24% | 5.3 | -5% | 4.8% | -2.4% | 0.4
CCOC(=O)N/N=C/C(Cl)=C/c1ccccc1
  2% | 10%[15.4 µM] | -3.9 | -19% | 1.1% | . | -3.7
COc1cccc(Nc2ncccc2C(=O)O)c1
  -13% | 8% | 1.4 | -21% | . | -2.1% | 1.9
CCOC(=O)c1cn(Cc2cccc(Cl)c2)nn1
  11% | -5% | 0.3 | 8% | 1.4% | 0.7% | 3.3
CCOc1ccccc1NC(=O)c1cccc(S(=O)(=O)N(Cc2ccccc2)c2ccccc2OC)c1
  6% | 3% | 3.2 | 6% | -0.6% | -6.4% | -4.0
COc1cccc(-c2cc(=O)c3ccc(OC)cc3o2)c1
  8% | . | -3.4 | . | 14% | . | .
COc1ccc(C(=O)OCCOc2cccc(Cl)c2)cc1S(=O)(=O)N1CCOCC1
  8% | -1%[15.4 µM] | . | -5% | 0.1% | -2.8% | -0.4
CCC(C)c1ccc(NC(=O)c2cnn3c(C(F)F)cc(C)nc23)cc1 (stereo unspecified)
  7% | 11%[15.4 µM] | 0.3 | 3% | 4.5% | . | -3.3
CNC(=O)c1sc(-c2cccs2)nc1C
  12% | -3%[15.4 µM] | 2.2 | 1% | 3.4% | . | -2.7
O=C(CCSc1ccccn1)c1ccccc1
  79µM* | ? | 4.6 | -4% | -0.3% | . | -3.8
CCCNC(=O)c1ccc(OC)cc1OC
  16% | -29% | 3.1 | 18% | 0.6% | 1.0% | -5.4
CC(=O)Nc1ccc(NC(=O)c2sc(-c3ccccc3)nc2C)cc1
  -3% | -21%[15.4 µM] | -6.6 | -2% | 5.6% | . | 0.3
Cc1oc(-c2ccccc2Cl)nc1Cn1cccc1C1=NC(c2ccccc2)CO1 (stereo unspecified)
  11% | -3% | 9.0 | -7% | 1.6% | ? | -2.3
COC(=O)CC(=O)N1CCN(c2ccc(Cl)c(Cl)c2)CC1
  15% | -3% | 0.5 | 5% | -0.1% | . | 1.7
O=C(O)CNc1nc(-c2ccccc2)nc2ccccc12
  20% | -1% | -1.1 | -17% | 1.4%[38.3 µM] | -2.2% | -0.9
Cn1cc(C(=O)NCN2CCCCC2)c2ccccc21
  14% | -5% | 1.4 | 5% | 0.8% | -6.0% | -5.3
CS(=O)(=O)c1ccc(Cl)c(NC(=O)COC(=O)CNC(=O)c2sc3ccccc3c2Cl)c1
  . | -14%[15.4 µM] | . | -6% | -2.8% | . | 0.1
